# From PubChem BioAssay
# Yeast UUG start: modulators of yeast start codon fidelity, primary screen, whole organism, S. cerevisiae, single point, plate reader | S. cerevisiae UUG-firefly luciferase reporter, luminescence/redox ratio | 350,000 tested, 0.13% active | activity score, % at 18.7 µM | AID 602363, 2012;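 active = replicate mean at a twofold rise or more, about +100% in these data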;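 note: firefly luciferase made from a UUG start codon reports start codon fidelity; reporter light over untreated wells divided by growth signal over untreated wells; some hits fall short of that in this replicate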
# Env fusion inh: inhibitors of HIV-1 Env-driven cell-cell fusion, primary screen, HeLa-JRFL effector, CEM21 target cells, luciferase. inhibition, % at 12.3 µM. 360,000 tested, 1.1% active;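 active = mean replicate inhibition score of at least 50 and every replicate individually at or above 50; inconclusive = only one of the two criteria met; inactive = mean below 50 and not all replicates reaching 50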;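 note: 0% = plate neutral controls and 100% = maraviroc near 300 nM; one replicate is shown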
# Numbers without * were called inactive; ? = inconclusive; [ ] = dose if it differs, or a comment.
SMILES,Yeast UUG start,Env fusion inh
O=C(C[C@@H]1C=C[C@H](NC(=O)C2CC2)[C@@H](CO)O1)NCc1ccncc1,3.7,8.4[16.7 µM]
Cc1noc(C)c1NC(=O)Nc1ccc2c(c1)CC(=O)N([C@@H](C)CO)C[C@@H](C)[C@@H](CN(C)S(=O)(=O)c1cccs1)O2,45.5,26.5[16.7 µM]
C[C@@H]1CN([C@@H](C)CO)C(=O)c2cccc(NC(=O)Nc3ccc4c(c3)OCO4)c2O[C@@H]1CN(C)CC1CCCCC1,0.0,-10.3[16.7 µM]
CN(C)C(=O)C[C@H]1CC[C@H]2[C@@H](COC[C@H](O)CN2C(=O)c2ccncc2)O1,-2.3,-5.7[16.7 µM]
C[C@@H]1CN([C@@H](C)CO)C(=O)Cc2cc(NC(=O)CCN3CCOCC3)ccc2O[C@H]1CN(C)Cc1ccc(C(=O)O)cc1,-5.7,-11.8[16.7 µM]
COc1ccc(NC(=O)N(C)C[C@@H]2OCCCC[C@H](C)Oc3ccc(NS(=O)(=O)c4ccc(C)cc4)cc3C(=O)N([C@H](C)CO)C[C@@H]2C)cc1,20.9,-98.9[16.7 µM]
C[C@H](CO)N1C[C@H](C)[C@@H](CN(C)C(=O)Cc2ccncc2)Oc2ncc(C#CC3(O)CCCC3)cc2C1=O,-4.5,4.7[16.7 µM]
CC(C)NC(=O)Nc1cccc2c1O[C@H](CN(C)S(=O)(=O)c1cccs1)[C@H](C)CN([C@@H](C)CO)C2=O,0.0,-47.5[16.7 µM]
C[C@@H]1CN([C@H](C)CO)S(=O)(=O)c2ccc(C#Cc3cccnc3)cc2O[C@H]1CN(C)C,-10.2,-9.7[16.7 µM]
CN1CCN(C(=O)C[C@H]2CC[C@H]3[C@@H](COC[C@@H](O)CN3C(=O)C3CCOCC3)O2)CC1,-7.5,-5.8[16.7 µM]
C[C@@H]1CN([C@@H](C)CO)C(=O)c2cc(C#CC3CC3)cnc2O[C@H]1CN(C)Cc1ccncc1,2.0,-28.2[16.7 µM]
C[C@@H]1CCCCO[C@@H](CN(C)S(=O)(=O)c2cccs2)[C@@H](C)CN([C@H](C)CO)C(=O)c2cc(NC(=O)Nc3ccc(F)cc3)ccc2O1,-15.3,4.2[16.7 µM]
COc1ccc(S(=O)(=O)Nc2ccc3c(c2)C(=O)N([C@@H](C)CO)C[C@@H](C)[C@H](CN(C)C(=O)C2CCCCC2)OCCCC[C@@H](C)O3)cc1,20.9,8.6[16.7 µM]
C[C@H]1CN([C@@H](C)CO)C(=O)c2cc(C#Cc3ccccc3F)cnc2O[C@@H]1CN(C)C(=O)Cc1ccccc1,-12.8,28.0[16.7 µM]
CC(C)NC(=O)N(C)C[C@H]1OCCCC[C@@H](C)Oc2ccc(NS(=O)(=O)c3ccc(Cl)cc3)cc2C(=O)N([C@H](C)CO)C[C@H]1C,7.6,-58.9[16.7 µM]
CCCN(C)C[C@H]1Oc2ncc(-c3cccnc3)cc2C(=O)N([C@H](C)CO)C[C@@H]1C,-9.7,-10.2[16.7 µM]
COCC#Cc1cnc2c(c1)C(=O)N([C@H](C)CO)C[C@@H](C)[C@@H](CN(C)S(=O)(=O)c1cccc(OC)c1)O2,13.6,-27.6[16.7 µM]
COc1cccc(NC(=O)N[C@@H]2CC[C@H](CC(=O)Nc3ccc(-c4ccccc4)cc3)O[C@H]2CO)c1,-13.3,6.1[16.7 µM]
C[C@@H]1CN([C@@H](C)CO)C(=O)c2cc(NC(=O)Nc3ccc(F)cc3)ccc2O[C@@H](C)CCCCO[C@@H]1CN(C)S(=O)(=O)c1ccc(Cl)cc1,-3.9,-45.4[16.7 µM]
C[C@H]1CCCCO[C@H](CN(C)S(=O)(=O)c2ccc(Cl)cc2)[C@@H](C)CN([C@@H](C)CO)C(=O)c2cc(NC(=O)NC3CCCCC3)ccc2O1,2.4,5.4[16.7 µM]
CCNC(=O)Nc1ccc2c(c1)C(=O)N(C)[C@H]1CC[C@H](CC(=O)NCCN3CCCC3)O[C@@H]1CO2,8.1,4.6[16.7 µM]
C[C@@H]1CN([C@@H](C)CO)C(=O)c2cc(NC(=O)C3CCCCC3)ccc2O[C@@H](C)CCCCO[C@@H]1CN(C)S(=O)(=O)c1ccc(F)cc1,-7.5,2.8[16.7 µM]
COc1ccc(CN(C)C[C@@H]2Oc3ccc(NC(=O)Nc4cccc5ccccc45)cc3CC(=O)N([C@@H](C)CO)C[C@@H]2C)cc1,-4.4,-8.6[16.7 µM]
C[C@@H]1CCCCO[C@H](CN(C)Cc2ccccc2)[C@@H](C)CN([C@H](C)CO)C(=O)c2cc(NS(C)(=O)=O)ccc2O1,-6.8,-1.6[16.7 µM]
CCCN(C)C[C@@H]1Oc2cc(C#C[C@@H](C)O)ccc2S(=O)(=O)N([C@H](C)CO)C[C@@H]1C,7.2,10.3[16.7 µM]
C[C@@H]1CN([C@H](C)CO)C(=O)c2cc(NC(=O)C3CCCCC3)ccc2O[C@@H](C)CCCCO[C@@H]1CN(C)Cc1ccc(Cl)c(Cl)c1,13.1,8.1[16.7 µM]
C[C@@H]1CN([C@@H](C)CO)C(=O)c2cc(NC(=O)NC3CCCCC3)ccc2O[C@@H]1CN(C)C(=O)Nc1cccc2ccccc12,-19.3,-3.2[16.7 µM]
C[C@H](NC(=O)C[C@@H]1CC[C@H]2[C@@H](COC[C@H](O)CN2C)O1)c1ccccc1,-11.8,-3.6[16.7 µM]
C[C@H]1CCCCO[C@H](CN(C)C(=O)c2ccccc2)[C@@H](C)CN([C@@H](C)CO)C(=O)c2cc(NC(=O)C3CCCCC3)ccc2O1,4.6,4.7[16.7 µM]
C[C@@H]1CN([C@@H](C)CO)C(=O)Cc2cc(NC(=O)Cc3cn(C)c4ccccc34)ccc2O[C@@H]1CN(C)Cc1ccccc1,-12.8,-50.6[16.7 µM]
Cc1noc(C)c1S(=O)(=O)N(C)C[C@H]1Oc2ccc(NC(=O)Nc3ccc4c(c3)OCO4)cc2CC(=O)N([C@@H](C)CO)C[C@H]1C,-3.9,6.6[16.7 µM]
O=C(NCC[C@H]1CC[C@H](NC(=O)C2CC2)[C@@H](CO)O1)Nc1ccc(C(F)(F)F)cc1,2.2,-2.6[16.7 µM]
O=C(C[C@H]1CC[C@@H](NC(=O)c2cccnc2)[C@@H](CO)O1)NCc1ccc(Cl)c(Cl)c1,21.5,2.4[16.7 µM]
Cc1ccc(S(=O)(=O)Nc2ccc3c(c2)C(=O)N([C@@H](C)CO)C[C@@H](C)[C@H](CN(C)Cc2ccc4c(c2)OCO4)OCCCC[C@@H](C)O3)cc1,15.1,11.9[16.7 µM]
COc1ccccc1S(=O)(=O)N[C@H]1C=C[C@H](CC(=O)NCc2cccc(F)c2)O[C@H]1CO,-7.3,3.1[16.7 µM]
CN(C)CCCNC(=O)C[C@@H]1C=C[C@H](NC(=O)c2ccccc2F)[C@H](CO)O1,3.7,14.2[16.7 µM]
C[C@H]1CN([C@@H](C)CO)C(=O)c2cc(NC(=O)C3CCCCC3)ccc2O[C@@H]1CN(C)CC1CC1,-6.9,-4.0[16.7 µM]
CN(C)C(=O)C[C@@H]1C=C[C@@H](NC(=O)C2CC2)[C@H](CO)O1,-1.9,-0.9[16.7 µM]
O=C(NCC[C@@H]1CC[C@H](NC(=O)c2ccccc2F)[C@@H](CO)O1)c1cnccn1,-7.6,8.6[16.7 µM]
Cc1ccc(S(=O)(=O)NCC[C@@H]2CC[C@H](NC(=O)CCN3CCCCC3)[C@H](CO)O2)cc1,-0.6,-37.7[16.7 µM]

# Entries of single compounds from above. Screens in order: Yeast UUG start, Env fusion inh
# `CCCN(C)C[C@@H]1Oc2cc(C#C[C@@H](C)O)ccc2S(=O)(=O)N([C@H](C)CO)C[C@@H]1C` is listed as 7.2, 10.3[16.7 µM]
# `C[C@@H]1CCCCO[C@H](CN(C)Cc2ccccc2)[C@@H](C)CN([C@H](C)CO)C(=O)c2cc(NS(C)(=O)=O)ccc2O1` is listed as -6.8, -1.6[16.7 µM]
# `CCCN(C)C[C@H]1Oc2ncc(-c3cccnc3)cc2C(=O)N([C@H](C)CO)C[C@@H]1C` is listed as -9.7, -10.2[16.7 µM]
# `C[C@H](NC(=O)C[C@@H]1CC[C@H]2[C@@H](COC[C@H](O)CN2C)O1)c1ccccc1` is listed as -11.8, -3.6[16.7 µM]
# `O=C(C[C@H]1CC[C@@H](NC(=O)c2cccnc2)[C@@H](CO)O1)NCc1ccc(Cl)c(Cl)c1` is listed as 21.5, 2.4[16.7 µM]

# Carrying on:
SMILES,Yeast UUG start,Env fusion inh
CCCc1cn(CC[C@@H]2CC[C@H](NC(=O)C3CCOCC3)[C@@H](CO)O2)nn1,3.7,14.1[16.7 µM]
C[C@@H]1CN([C@H](C)CO)C(=O)c2cccc(NS(=O)(=O)c3ccc(F)cc3)c2O[C@H]1CN(C)C(=O)Nc1ccc(F)cc1,-1.9,-2.4[16.7 µM]
Cc1noc(C)c1S(=O)(=O)N(C)C[C@@H]1OCCCC[C@H](C)Oc2ccc(NC(=O)CCC(F)(F)F)cc2C(=O)N([C@@H](C)CO)C[C@H]1C,-3.1,-2.5[16.7 µM]
O=C(C1=C[C@@H](c2ccc(C(F)(F)F)cc2)C[C@@H](OCc2ccc(CO)cc2)O1)N1CCCCCCC1,9.1,-0.3[16.7 µM]
Cc1ccc(S(=O)(=O)N(C)C[C@H]2Oc3cc(C#CC4CCCC4)ccc3S(=O)(=O)N([C@@H](C)CO)C[C@@H]2C)cc1,-8.9,-9.1[16.7 µM]
CCC(=O)Nc1ccc2c(c1)OC[C@@H](C)N(C(=O)c1ccccn1)C[C@H](C)[C@@H](OC)CN(C)C2=O,2.8,-5.2[16.7 µM]
O=C(Nc1ccccc1)N[C@@H]1CC[C@@H](CCn2cc(C3(O)CCCC3)nn2)O[C@H]1CO,-1.1,-11.4[16.7 µM]
COc1cccc(-c2ccc3c(c2)O[C@H](CN(C)CC2CC2)[C@H](C)CN([C@H](C)CO)S3(=O)=O)c1,-7.5,-19.0[16.7 µM]
C[C@@H]1CN([C@@H](C)CO)C(=O)c2cccc(NC(=O)Nc3ccc(C(F)(F)F)cc3)c2O[C@H]1CN(C)CC1CC1,5.8,7.7[16.7 µM]
COc1ccc(NC(=O)Nc2ccc3c(c2)C(=O)N([C@H](C)CO)C[C@H](C)[C@@H](CN(C)C(=O)Nc2ccc(F)cc2)O3)cc1,17.1,5.7[16.7 µM]
Cc1cccc(CN(C)C[C@@H]2OCc3cn(nn3)CCCC(=O)N([C@H](C)CO)C[C@H]2C)c1,7.4,19.9[16.7 µM]
C[C@H]1CCCCO[C@@H](CN(C)CC2CCCCC2)[C@@H](C)CN([C@@H](C)CO)C(=O)c2cc(NC(=O)CCC(F)(F)F)ccc2O1,0.8,19.8[16.7 µM]
COc1ccc(S(=O)(=O)N(C)C[C@H]2OCCCC[C@H](C)Oc3ccc(NC(=O)NC4CCCCC4)cc3C(=O)N([C@@H](C)CO)C[C@H]2C)cc1,-10.0,-15.5[16.7 µM]
C[C@@H]1CN([C@H](C)CO)S(=O)(=O)c2ccc(C#CC3CCCC3)cc2O[C@H]1CN(C)C,39.4,?
CC(C)NC(=O)Nc1ccc2c(c1)CC(=O)N([C@@H](C)CO)C[C@@H](C)[C@H](CN(C)S(=O)(=O)c1cccs1)O2,6.7,0.4[16.7 µM]
C[C@@H]1CCCCO[C@H](CN(C)C(=O)Nc2ccccc2)[C@@H](C)CN([C@@H](C)CO)C(=O)c2cc(NC(=O)c3ccncc3)ccc2O1,17.0,-10.7[16.7 µM]
O=C(C[C@H]1CC[C@@H](NC(=O)Nc2ccc3c(c2)OCO3)[C@@H](CO)O1)NCc1ccc2c(c1)OCO2,-5.0,21.4[16.7 µM]
O=C(Nc1cccc(Cl)c1)N[C@@H]1CC[C@@H](CCNC(=O)C2CCCCC2)O[C@H]1CO,2.6,-7.7[16.7 µM]
CC(C)NC(=O)N(C)C[C@H]1Oc2ccc(NC(=O)Nc3cccc4ccccc34)cc2CC(=O)N([C@H](C)CO)C[C@@H]1C,14.1,-19.7[16.7 µM]
COC(=O)C[C@@H]1CC[C@H](NS(=O)(=O)c2ccc(OC)cc2)[C@H](CO)O1,-1.4,-2.5[16.7 µM]
COc1ccc(NC(=O)N[C@H]2CC[C@@H](CCNS(=O)(=O)c3cccc(Cl)c3)O[C@H]2CO)cc1,1.2,-33.3[16.7 µM]
C[C@@H]1CN([C@@H](C)CO)C(=O)c2cc(NC(=O)Nc3cccc4ccccc34)ccc2O[C@@H]1CN(C)Cc1ccc2c(c1)OCO2,34.4,15.8[16.7 µM]
C[C@@H]1CCCCO[C@@H](CN(C)S(=O)(=O)c2cccs2)[C@@H](C)CN([C@@H](C)CO)C(=O)c2cc(NC(=O)CCCN(C)C)ccc2O1,-4.0,11.5[16.7 µM]
C[C@@H]1CN([C@@H](C)CO)C(=O)c2cc(C3=CCCC3)cnc2O[C@@H]1CN(C)S(=O)(=O)c1cn(C)cn1,-1.8,0.9[16.7 µM]
O=C(NCC[C@H]1CC[C@H](NC(=O)C2CCCC2)[C@H](CO)O1)c1cnccn1,15.8,-12.8[16.7 µM]
C[C@@H]1CN([C@@H](C)CO)C(=O)c2cc(NC(=O)NC3CCCCC3)ccc2O[C@@H](C)CCCCO[C@H]1CN(C)C(=O)Nc1ccc2c(c1)OCO2,-3.7,-19.9[16.7 µM]
C[C@@H]1CN([C@H](C)CO)C(=O)c2cc(C#CC3(O)CCCC3)cnc2O[C@@H]1CN(C)Cc1ccccc1,-1.0,-5.6[16.7 µM]
C[C@@H]1CN([C@@H](C)CO)C(=O)c2cc(NC(=O)Nc3cccc4ccccc34)ccc2O[C@@H](C)CCCCO[C@@H]1CN(C)C(=O)c1ccccc1,-19.0,-32.6[16.7 µM]
Cc1ccc(S(=O)(=O)N[C@@H]2CC[C@@H](CC(=O)NCc3ccccc3F)O[C@@H]2CO)cc1,-0.8,8.4[16.7 µM]

# Some of the compounds tested, so the mix of outcomes need not match the whole.
